CBX7 inh – blocks human CBX7 binding to H3K27me3 peptide; O95931; AlphaScreen His6-CBX7 / biotin-H3K27me3 peptide binding; active compounds read low; normalised signal (fraction of DMSO) (concentration not given with the values); 1.1% of 66,000 active; AID 1224903; in the data active = normalised signal below about 0.5;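 also: 100 nL library stock added to about 20 µL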
Target sequence (O95931 whole entry, looked up): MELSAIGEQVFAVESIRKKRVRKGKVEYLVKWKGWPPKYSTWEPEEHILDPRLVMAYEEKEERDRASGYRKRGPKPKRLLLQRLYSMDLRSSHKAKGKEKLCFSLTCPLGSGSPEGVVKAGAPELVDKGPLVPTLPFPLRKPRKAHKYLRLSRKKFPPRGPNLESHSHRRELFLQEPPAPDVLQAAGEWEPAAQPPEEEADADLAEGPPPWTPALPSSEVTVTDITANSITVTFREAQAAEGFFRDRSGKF
CBX7 inh z-score – also measured in CBX7 inh; calls as there; z-score; measured here: z-score of CBX7 signal; some inactives read as strong as hits; reference of the scale not given here;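 same signal on another scale; lower means less binding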
The depositor's hits bear a star. These rows are one share of the data; rates above refer to the full screens.

Preview (three entries):
Molecule,CBX7 inh,CBX7 inh z-score
NS(=O)(=O)c1ccc(CCNC(=O)CCCn2c(=O)[nH]c3cc(Cl)ccc3c2=O)cc1,1.05,1.81
COc1ccc(C(=O)NCCc2cc3c(C)ccc(C)c3[nH]c2=O)cc1,0.984,-0.413
COc1ccc(Cc2noc(-c3c(-c4ccccc4Cl)noc3C)n2)cc1,0.763,-2.68

All compounds of this part (from the top)
Molecule,CBX7 inh,CBX7 inh z-score
NS(=O)(=O)c1ccc(CCNC(=O)CCCn2c(=O)[nH]c3cc(Cl)ccc3c2=O)cc1,1.05,1.81
COc1ccc(C(=O)NCCc2cc3c(C)ccc(C)c3[nH]c2=O)cc1,0.984,-0.413
COc1ccc(Cc2noc(-c3c(-c4ccccc4Cl)noc3C)n2)cc1,0.763,-2.68
COc1ccccc1CNC(=O)CN(C)S(=O)(=O)c1ccc2c(c1)n(C)c(=O)c(=O)n2C,1.18,1.67
CC(=O)c1ccc(N2CCN(C(=O)c3ccc(F)cc3F)CC2)c(F)c1,1.03,0.949
Cc1ccc(-c2cc(C(=O)Nc3ccc(Cl)cc3)c3ccccc3n2)cc1,0.808,-0.676
NC(=O)c1nnn(-c2nonc2N)c1CSc1nc2ccccc2o1,0.734,-1.05
Cc1cc(OC(C)C(=O)N(Cc2ccc(N(C)C)cc2)C2CCS(=O)(=O)C2)ccc1Cl (stereo not drawn),0.767,-2.08
Cc1cccc(-c2cc(C(=O)NCCN3CCOCC3)c3ccccc3n2)c1,1.04,1.25
Cc1onc(-c2ccccc2Cl)c1C(=O)Nc1ccc2c(c1)oc1ccccc12,0.944,-1.39
CC1CCc2c(C(=O)NCCCc3ccccc3)csc2C1 (stereo not drawn),1.12,4.54
COc1cc2c(cc1OC)C(c1c(F)cccc1Cl)CC(=O)N2 (stereo not drawn),1.02,0.69
CC1(C)CC(=O)C2=C(C1)Nc1cc(C(=O)c3ccccc3)ccc1NC2c1ccncc1 (stereo not drawn),1.01,0.389
O=C(c1cccc(NC2=NC3CS(=O)(=O)CC3S2)c1)N1CCC(Cc2ccccc2)CC1 (stereo not drawn),0.932,-0.74
Cc1cc2c(cc1C)C(c1cc(F)ccc1F)CC(=O)N2 (stereo not drawn),0.985,-0.03
Cc1ccccc1NC(=O)C1(N(C)C(=O)Cc2nc(N)n[nH]2)CCCCC1,0.857,-2.6
Cc1ccc(Cl)cc1N1CCN(S(=O)(=O)c2ccc3c(c2)CCN3C(=O)C2CCC2)CC1,0.972,-0.979
c1cncc(-c2nnc(SCc3cccc4ccccc34)o2)c1,1.02,0.267
CCCCNC(=O)Cn1nc(Cc2ccncc2)c2ccccc2c1=O,0.944,-0.659
CCOc1ccc(C2CC(=O)c3c([nH]c(C(=O)OCc4ccccc4)c3C)C2)cc1 (stereo not drawn),0.95,-0.328
COc1ccc(-c2nc(-c3ccccc3)c(-c3ccc(F)cc3)[nH]2)cc1O,0.785,-5.36
CN(C)C(=O)c1cn(-c2ccccc2)nc1-c1cccnc1,1,0.0213
CCc1ccc(OCC(=O)Nc2cc(-c3nc4ncccc4o3)ccc2Cl)cc1,1.12,1.31
COc1ccc(-c2nc(-c3ccccc3)c(-c3cccs3)[nH]2)c(OC)c1C,0.9,-2.49

As a short view, some entries already given.
Molecule,CBX7 inh,CBX7 inh z-score
c1cncc(-c2nnc(SCc3cccc4ccccc34)o2)c1,1.02,0.267
CCCCNC(=O)Cn1nc(Cc2ccncc2)c2ccccc2c1=O,0.944,-0.659
CCOc1ccc(C2CC(=O)c3c([nH]c(C(=O)OCc4ccccc4)c3C)C2)cc1 (stereo not drawn),0.95,-0.328

Next results
Molecule,CBX7 inh,CBX7 inh z-score
NC(=O)c1c(NC(=O)c2cc(-c3ccc(Br)cc3)on2)sc2c1CCCC2,1.23,1.33
CCc1ccc(NC(=O)c2sc3ncn(CC(=O)N4CC(C)CC(C)C4)c(=O)c3c2C)cc1 (stereo not drawn),0.979,-0.489
Cc1ccc(CNC(=O)C2CCN(c3nc4ccccc4o3)CC2)cc1,1.07,0.0807
COc1ccc(Cn2c(=O)c3cccnc3n(Cc3ccc(F)cc3)c2=O)cc1,0.999,-0.0179
CCOc1ccc(-c2cc(CCCC(=O)NCc3cccnc3)no2)cc1,1.08,2.03
O=C(c1c[nH]c2ccc(S(=O)(=O)Nc3ccccc3F)cc2c1=O)N1CCCC1,0.928,-1.34
CCCCOc1ccc(C(=O)NCCc2cc3cc(C)c(C)cc3[nH]c2=O)cc1,1.04,1.6
CN(Cc1ccccc1)C1CC(=O)N(c2ccc(F)cc2)C1=O (stereo not drawn),0.989,-0.306
Cc1ccc2c(c1)c1c(n2CC(O)CN2CCCCC2C)CCCC1 (stereo not drawn),0.822,-5.77
COc1cccc(Nc2cc(C)nc3nc(C)nn23)c1,1.03,0.602
OCCN(CC#CC(O)(c1ccccc1)c1cccc(F)c1)CCO (stereo not drawn),0.894,-1.51
Cc1nnc(NC(=O)c2ccc(S(=O)(=O)N3CCCC(C)C3)cc2)o1 (stereo not drawn),0.746,-6.39
Cc1ccc(CCNC(=O)C2CCCN(S(=O)(=O)c3cccs3)C2)cc1 (stereo not drawn),1.01,0.531
Cc1ccc(CNC(=O)C2CCC(=O)N2Cc2cccnc2)cc1 (stereo not drawn),1.05,1.6
Cc1csc2ncc(C(=O)Nc3ccc(OC(F)(F)F)cc3)c(=O)n12,1.07,2.43
O=C(NCCc1ccccc1)c1cc(-c2ccc(Cl)cc2)on1,1.04,0.0555
CN1CCN(c2nnc(Cc3cccnc3)c3ccccc23)CC1,0.939,-1.21
O=C(NCCC1=CCCCC1)c1ccc2c(c1)N(Cc1ccccc1)C(=O)c1ccccc1S2=O (stereo not drawn),0.892,-2.58
CCC(C)NC(=O)C1CCC(CNS(=O)(=O)c2cccc3cccnc23)CC1 (stereo not drawn),0.958,-0.5
O=C(Nc1ccc2oc(-c3cccc(Cl)c3)nc2c1)c1ccccc1F,1.03,1.52
CC1(C)CC(CCNCc2ccccc2)(c2ccccc2)CCO1 (stereo not drawn),0.951,-0.699
Cc1ccc(CSc2nc3ccncc3n2Cc2nc(-c3cccc(C)c3)oc2C)cc1,1.01,0.0868
CCCCN(C(=O)Cn1ncc2c1-c1ccccc1OC2)C1CCN(C(C)=O)CC1,1.08,0.457
CN(C(=O)c1cnc(N2CCN(c3ncccn3)CC2)c2ccccc12)c1ccc(Cl)cc1,0.957,-1.72
COc1ccc(Nc2cc(C(=O)NCCCN(C)Cc3ccccc3)c3ccccc3n2)cc1OC,0.436*,-11.1*
COc1ccc(-c2csc(Nc3cccc(C(=O)O)c3)n2)cc1,0.753,-4.64
N#Cc1nc(COc2ccc(Br)cc2)oc1NCCc1ccccc1,0.772,-1.43
COc1ccc(C2CC(=O)c3cnc(NC(C)=O)nc3C2)cc1OC (stereo not drawn),1.06,2.38
CCOc1cc2[nH]c(=O)n(CCCC(=O)N3CCN(c4ccccc4OC)CC3)c(=O)c2cc1OCC,1.01,0.124
CCC(C(=O)Nc1nnc(Cc2ccccc2F)s1)c1ccccc1 (stereo not drawn),1.12,0.511
COc1ccc(-c2nc(-c3ccccc3)[nH]c2S(=O)(=O)CC(=O)Nc2ccc(F)cc2)cc1,1.02,0.731
O=C(COc1nsnc1N1CCCCC1)Nc1ccc(Br)cc1,1.12,0.875
COc1ccc(Nc2cc(C(=O)NCCCN3CCCC3)c3ccccc3n2)c(OC)c1,0.754,-3.26
COc1cc(Nc2nc3ccccc3nc2-n2nc(C)cc2C)c(OC)cc1Cl,1.38,7.56
COc1ccc(-c2nocc2-c2ccc(Br)cc2)c(O)c1,0.956,-0.192
CCc1cccc(NC2c3ccccc3C(=O)N2c2ccc(Cl)cn2)c1 (stereo not drawn),0.975,-0.35
CCCS(=O)(=O)N1CCC(C(=O)NCc2cccc(OC)c2)CC1,0.989,-0.219
COc1cc(OC)c(NC(=O)c2sc3ncn(CC(=O)N4CCCC4)c(=O)c3c2C)cc1Cl,1.01,0.139
CC(C)CCNC(=O)c1ccc2c(c1)N(Cc1ccc(Cl)cc1)C(=O)c1ccccc1S2=O (stereo not drawn),0.983,-0.32
Cc1ccccc1NC(=O)C1(NC(=O)Cc2nc(N)n[nH]2)CCCCC1,0.864,-0.135
COc1ccc(CNC(=O)C2CCN(S(C)(=O)=O)CC2)c(OC)c1,0.985,-0.229
Cc1cc(NC(=O)CSc2nccn2-c2cccc(C)c2C)no1,0.878,-0.122
CC(CC(=O)NC1CCCCCCC1)CC1=NS(=O)(=O)c2ccccc2N1 (stereo not drawn),0.994,-0.148
C#CCNc1ccccc1-c1nc2ccccc2[nH]c1=O,1.05,0.438
O=C(O)c1ccc(S(=O)(=O)c2ccc3c(c2)C(=O)N(Cc2ccccc2)C3=O)cc1,1.09,2.48
Cc1cccc(C(=O)Nc2c3c(nn2-c2ccc(Cl)cc2)CSC3)c1,0.947,-0.961
COc1ccc(NC(=O)Cn2ncc3c2-c2ccccc2OC3)cc1OC,0.901,-1.42
Cc1ccc(-c2cc(C(=O)N3CCN(C)CC3)c3ccccc3n2)s1,1.01,0.107
CC(C)Oc1ccccc1C1CC(=O)NC2=C1C(=O)CC(C)(C)C2 (stereo not drawn),1.1,1.22
COc1ccc(NC(=O)NCCCN2CCN(c3ccc(F)cc3)CC2)cc1,0.946,-0.867
COc1ccc(-c2nc(S(=O)(=O)c3ccccc3)c(N3CCCCC3)o2)cc1OC,0.971,-1.01
O=C(Nc1ccccc1C(F)(F)F)c1cc(-c2ccc(Cl)cc2)on1,1.05,2.04
Cc1cccc(CCNC(=O)c2cc(Sc3nnc(C)s3)nc3ccccc23)c1,1.01,0.457
Cc1cccc(CCNC(=O)CCc2c(C)nc3cc(-c4cccc(F)c4)nn3c2C)c1,0.893,-1.75
CCCCCCNC(=O)CCc1c(C)nc2c(c(C)nn2-c2ccc(C)cc2)c1C,1.19,1.46
Cc1ccc(NC(=O)c2ccc(F)c(S(=O)(=O)N3CCC(C)CC3)c2)cc1F,0.969,-0.34
Cc1ccc(-n2c3c(cc(C(=O)NCCCN4CCOCC4)c2=O)C(=O)CC(C)(C)C3)cc1,1.01,0.255
CC1CCC(NC(=O)C2(C)CCC(=O)N2Cc2ccc(F)cc2)CC1 (stereo not drawn),0.855,-2.37
CCOc1cc2c(cc1OCC)C(c1cc3c(cc1Br)OCO3)NCC2 (stereo not drawn),0.981,-0.0881
Cc1ccc(-c2nn(C)c(=O)c3ccccc23)cc1S(=O)(=O)NCc1ccccc1,0.932,-1.93

Remaining list, next part:
Molecule,CBX7 inh,CBX7 inh z-score
CCc1ccccc1NC(=O)c1cc2c(n(-c3ccccc3)c1=O)CC(C)(C)CC2=O,1,-0.00368
Cc1cc(NC(=O)Cc2ccc(Br)cc2)no1,1,-0.0014
Cc1ccc(Nc2nc3nonc3[nH]c2=O)cc1Cl,0.957,-0.292
O=C(c1cccc(Br)c1)N1CCc2c([nH]c3ccccc23)C1c1ccc(Cl)cc1 (stereo not drawn),0.852,-2.37
CCOc1ccc2nc(C)cc(Nc3ccccc3OC)c2c1,0.848,-2.2
Cc1ccccc1Nc1cc(C(=O)NCc2cccs2)c2ccccc2n1,1.16,2.55
CCCCn1c(C2CC(=O)N(c3cccc(C(F)(F)F)c3)C2)nc2ccccc21 (stereo not drawn),1.09,0.619
Cc1c(C)n(C)c2ccc(C(=O)Nc3ccc(C(F)(F)F)cc3)cc12,1.05,0.841
O=C(CSc1ncnc2sc3c(c12)CCC3)Nc1ccc(Cl)c(C(F)(F)F)c1,1.19,0.392
CCN1CCN(c2ccc(NC(=O)[C@@H](c3ccccc3)N3Cc4ccccc4C3=O)cc2)CC1,0.948,-2.26
COc1ccc(Cn2c(CCC(=O)NC3CCCCC3)nc3cccnc32)cc1,0.954,-0.888
Cc1cc2cc(CCNS(C)(=O)=O)c(=O)[nH]c2cc1C,1.04,0.611
O=C(CC(C(=O)N1CCc2ccccc21)n1ccnc1)NCCc1ccccc1 (stereo not drawn),0.81,-4.73
CC1CC(C)CN(C(=O)C2CCN(c3nc4ccccc4[nH]3)CC2)C1 (stereo not drawn),0.848,-1.76
Cc1ccc(Cn2nnc3c(=O)n(Cc4cccc(C(F)(F)F)c4)cnc32)cc1,0.876,-2.03
CCCNC(=O)C1CCN(S(=O)(=O)c2ccc3nc4c(c(C(=O)O)c3c2)CCCCC4)CC1,1.02,0.834
CCOC(=O)c1sc2ncn(CC(=O)Nc3cccc(Cl)c3)c(=O)c2c1C,1.05,2.1
Cc1nc2c(C(=O)NCc3ccc4c(c3)OCO4)cnn2c(C)c1Cc1ccccc1Cl,0.934,-2.87

Ordered by SMILES length (smallest number first): 3 of the compounds above.
Molecule,CBX7 inh,CBX7 inh z-score
CC1CC(C)CN(C(=O)C2CCN(c3nc4ccccc4[nH]3)CC2)C1 (stereo not drawn),0.848,-1.76
CCOC(=O)c1sc2ncn(CC(=O)Nc3cccc(Cl)c3)c(=O)c2c1C,1.05,2.1
CCCNC(=O)C1CCN(S(=O)(=O)c2ccc3nc4c(c(C(=O)O)c3c2)CCCCC4)CC1,1.02,0.834

Compound activity as filed in PubChem BioAssay.
